Screening results: PubChem, National Center for Advancing Translational Sciences (NCATS)
LASV entry inh: qHTS for Inhibitors of binding or entry into cells for Lassa Virus | Lassa virus pseudotype entry inhibition, cell reporter; control for the full effect not named in the record | Potency, µM (highest dose often 37.9 µM), inactives show at the highest dose activity change, negative = inhibition, most hits filed as inhibitors | 300,000 compounds, 1.2% hits | AID 540256, 2011; active means well fitted inhibition curve with a large enough effect; inconclusive means small, poorly fitted or top-dose-only effect, or effect the other way; inactive means flat fitted curve, though single readings scatter; tested in HEK293 cells; also: % is scaled to controls: 0 for no effect and ±100 for the full control effect; nearly all actives have a fitted effect of over 50% in size; luciferase read-out
NS1 function inh: qHTS Assay for Inhibitors of Influenza NS1 Protein Function. S. cerevisiae slowed by influenza A NS1, growth recovery by OD600. Potency, µM (highest dose often 46.1 µM), without a hit: at the highest dose activity, positive = more growth. 270,000 compounds, 0.4% hits. AID 2326, 2010; also: actives are rising curves; nearly all actives have a fitted effect of over 50% in size
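OD600 was taken as the measure of yeast growth restored by compound in an NS1-expressing S. cerevisiae strain. Cells had been washed out of glucose medium and diluted 1:100 into galactose -URA medium, pH 6.0.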
SARS PLP yeast: qHTS of Yeast-based Assay for SARS-CoV PLP; S. cerevisiae expressing SARS-CoV PLpro, growth rescue; control for the full effect not named in the record; Potency, µM (titrated, usually from 32.9 µM), inactives show at the top dose activity, positive = growth rescue; 330,000 compounds, 0.19% hits; also: 0% is about no effect; nearly all actives have a fitted effect of over 55% in size; growth read by luminescence after 48 h
2A StopGo: High Throughput Screening for Foot and Mouth Disease Virus Antivirals; Potency, µM (top dose mostly 57.9 µM), without a hit: at the top dose signal change, negative = less light; 410,000 compounds, 1.2% hits; human cells with a luciferase reporter of 2A StopGo recoding; control for the full effect not named in the record; active = well fitted falling curve with a large enough effect; inconclusive = small, poorly fitted or top-dose-only effect; inactive = no such curve, though single readings can be large or run the other way; tested in HEK293T cells; also: % is scaled to controls: 0 for no effect and ±100 for the full control effect; nearly all actives have a fitted effect of over 45% in size; luciferase light after 4 h
* marks the source's active call; other numbers are inactive results; ? = inconclusive; nt = no result given; [ ] = remark or other dose. Unless noted, calls follow the shape of the dose curve; as a rule, active means well fitted rising curve with a large enough effect; inconclusive means small, poorly fitted or top-dose-only effect; inactive means no such curve, though single readings can be large or run the other way. Potency is read from the fitted curve at half-maximal effect. These rows are one share of the data. The share of hits here may be higher or lower than overall.

SMILES	LASV entry inh	NS1 function inh	SARS PLP yeast	2A StopGo
OC(c1cc(-c2ccc(C(F)(F)F)cc2)nc(C(F)(F)F)c1)C1CCCCN1 (stereo not given)	nt	9%	1%	?
FC(F)(F)c1cc(Cl)c2nnc(-c3ccccn3)n2c1	nt	-7%	-3%	-19%
NNC(=O)c1[nH]c2ccc([N+](=O)[O-])cc2c1-c1ccccc1	nt	15%	0%	-13%
CC(=O)C1=NOC2C(=O)N(c3ccccc3)C(=O)C12 (stereo not given)	nt	-2%	2%	1%
O=C(O)c1nn(-c2cccc(C(F)(F)F)c2)ccc1=O	nt	-1%	2%	-11%
COc1cc2c(c(OC)c1OC)CCc1cnoc1-2	nt	-1%	-1%	-10%
O=C(Nc1ccsc1C(=O)O)c1cccc(C(F)(F)F)c1	nt	-4%	2%	37%[activator]
C=C(C)CN(CC)C(=O)CN1C(=O)NC(C)(c2ccc3ccccc3c2)C1=O (stereo not given)	nt	-4%	1%	-11%
O=C(O)[C@H](Cc1c[nH]c2ccccc12)Nc1ncccc1[N+](=O)[O-]	nt	-1%	0%	4%
Cc1nc(Br)c(Br)c(C)c1Br	nt	?	-1%	43%[activator]

Profiles, quoted from the list. Values in the order: LASV entry inh | NS1 function inh | SARS PLP yeast | 2A StopGo
O=C(Nc1ccsc1C(=O)O)c1cccc(C(F)(F)F)c1 is listed as nt | -4% | 2% | 37%[activator]
FC(F)(F)c1cc(Cl)c2nnc(-c3ccccn3)n2c1 is listed as nt | -7% | -3% | -19%
CC(=O)C1=NOC2C(=O)N(c3ccccc3)C(=O)C12 (stereo not given) is listed as nt | -2% | 2% | 1%
NNC(=O)c1[nH]c2ccc([N+](=O)[O-])cc2c1-c1ccccc1 is listed as nt | 15% | 0% | -13%
Cc1nc(Br)c(Br)c(C)c1Br is listed as nt | ? | -1% | 43%[activator]

The list continues:
SMILES	LASV entry inh	NS1 function inh	SARS PLP yeast	2A StopGo
COc1cc(/C=C2/SC(=S)N(Cc3ccccc3)C2=O)cc(Cl)c1O	nt	5%	-1%	?
Cc1ccc(S(=O)(=O)c2ncccc2N)cc1	nt	7%	0%	-11%
CCOC(=O)CN1C(=O)C(=O)N(Cc2cccc(C)c2)C1=O	nt	3%	0%	-10%
Clc1ccc(CN2CCC(c3ccccc3)CC2)cc1	nt	-1%	-1%	-21%
CCOC(=O)C(=O)C1C(=O)Nc2ccccc21 (stereo not given)	nt	-5%	0%	-15%
CC(=O)OC1CC[C@@]2(C)C(CCC3C2CC(=O)[C@@]2(C)C3CC3CC(C)=CC(=O)C32)C1 (stereo not given in full)	nt	4%	-7%	-12%
O=C1NC(=O)C(=Cc2ccc3ccccc3c2)C(=O)N1	nt	8%	1%	-15%
Nc1ccccc1SSc1ccccc1N	nt	-116%	-25%	8%
C=C(C)C(=O)Nc1ccc(NC(C)C)cc1	nt	4%	-1%	32%[activator]
COc1ccc(Nc2cc3n(c(=O)n2)CCc2cc(OC)c(OC)cc2-3)c(C)c1	nt	-12%	-2%	-29%
COc1cc(CCC(=O)O)on1	nt	11%	2%	-6%
Cn1c2c(c(=O)n(C)c1=O)NC1(N2)C(=O)Nc2ccccc21 (stereo not given)	nt	-5%	-1%	-16%
O=C(CBr)c1ccc([N+](=O)[O-])c(CS(=O)(=O)c2ccc(Cl)cc2)c1	nt	10%	-3%	-28%
CC[n+]1cc(C)ccc1/C=C/c1ccc(N(C)C)cc1	nt	-7%	-4%	?
CCn1ncc(N2CCOCC2)c(Cl)c1=O	nt	0%	-1%	11%
CCNC(=O)Oc1ccc[nH]c1=O	nt	-37%	11%	-11%
C=CCOC(=O)/C=C/C(=O)NC(N)=O	nt	9%	-2%	-4%
CO/N=C/CC(=O)c1ccc([N+](=O)[O-])c(CS(=O)(=O)c2ccc(Cl)cc2)c1	nt	?	1%	-31%
COc1ccc(OC(=O)Nc2ccc([N+](=O)[O-])cc2OC)cc1	nt	9%	-1%	10%
C#CC[N+]1(C)[C@@H]2CC[C@H]1CC(OC(=O)C(CO)c1ccccc1)C2 (stereo not given in full)	nt	6%	1%	-6%
CCCCN(CC)C(=O)c1cc2cc3ccc(Cl)cc3nc2o1	nt	0%	-4%	0%
Cc1ncc(C(=O)O)c(C(=O)O)c1N	nt	-5%	2%	0%
Cc1ccc(NC(=O)c2cn3c4c(ccc(Cl)c4c2=O)OC(C)C3)cc1C (stereo not given)	4%[46.1 µM]	nt	nt	-22%
CCCSCCCNC(=O)C1CCN(c2nn3cc(-c4ccc(F)cc4)nc3s2)CC1	16%[46.1 µM]	nt	nt	6%
COc1ccc(-c2cn3nc(N4CCCC(C(=O)NCc5ccccc5C)C4)sc3n2)cc1 (stereo not given)	-1%[46.1 µM]	nt	nt	-3%
CCOC(=O)c1ccc(NC(=O)CN2Cc3ccccc3C2=O)cc1	-24%[46.1 µM]	nt	nt	-8%
CCOC(=O)c1ccc(NC(=O)C2=C(C)C(=O)OC23CCN(C(C)=O)CC3)cc1	-9%[46.1 µM]	nt	nt	-12%
CCn1cc(S(=O)(=O)c2cc(C)cc(C)c2)c(=O)c2cc(F)c(N3CCC(C)CC3)cc21	?	nt	nt	33%[activator]
Cc1ccc(-c2cn3nc(N4CCCC(C(=O)NCc5ccc(F)cc5)C4)sc3n2)cc1 (stereo not given)	?	nt	nt	-2%
FC(F)(F)c1cccc(N2CCN(c3ncnc4c3nc3n4CCCC3)CC2)c1	-1%[46.1 µM]	nt	nt	20µM*
O=C(CN1C(=O)COc2ccc(S(=O)(=O)NC3CCCC3)cc21)NCc1ccccc1Cl	-3%[46.1 µM]	nt	nt	2%
CC(=O)N1c2ccc(S(=O)(=O)NCCc3cccc(C)c3)cc2CC1C (stereo not given)	-17%[46.1 µM]	nt	nt	0%
Cc1ccc(CSc2nc3cccnc3n2Cc2ccc(C(=O)NCCc3ccccc3)cc2)cc1	6%[46.1 µM]	nt	nt	17%
COc1ccc(-c2nc(Cn3c(SCc4cccc(C(F)(F)F)c4)nc4cccnc43)c(C)o2)cc1OC	-10%[46.1 µM]	nt	nt	?
Cc1cc2c(n1-c1ccc(C(=O)NCc3ccccc3Cl)cc1)CCCC2	?	nt	nt	-8%
CCOc1ccccc1CNC(=O)C1CCN(c2nn3cc(-c4ccc(F)cc4)nc3s2)CC1	14%[46.1 µM]	nt	nt	33%[activator]
CC1Cc2cc(S(=O)(=O)NCCc3ccc(Cl)cc3)ccc2N1C(=O)C1CCC1 (stereo not given)	-22%[46.1 µM]	nt	nt	51%[activator]
Cc1ccc(C)c(NC(=O)CSc2nnc(-c3cc4occc4n3C)n2-c2ccccc2C)c1	?	nt	nt	-11%
O=C(Cn1c(SCc2ccc(F)cc2)nc2cccnc21)Nc1ccccc1F	?	nt	nt	6%
COc1ccc(C)cc1NC(=O)N1CC(C)Sc2ccccc21 (stereo not given)	12%[46.1 µM]	nt	nt	-4%
O=c1c(S(=O)(=O)c2ccccc2)cn(Cc2ccc(F)cc2)c2cc(N3CCCCC3)c(F)cc12	-2%[46.1 µM]	nt	nt	-4%
CC(=O)N1CCC2(CC1)OC(=O)C(C)=C2C(=O)Nc1cccc(Cl)c1C	2%[46.1 µM]	nt	nt	-4%
O=C(c1cc(-c2ccc(Cl)cc2)n[nH]1)N1CCN(S(=O)(=O)c2ccc(Br)s2)CC1	?	nt	nt	-27%
Cc1cccc(Cn2c(SCc3ccc(C(=O)NCc4ccccc4)cc3)nc3cccnc32)c1	?	nt	nt	-27%
CCOCCCNC(=O)C(c1ccccc1)N1Cc2ccccc2C1=O (stereo not given)	0%[46.1 µM]	nt	nt	2%
O=C(c1cc(-c2ccc(Br)cc2)n[nH]1)N1CCN(S(=O)(=O)c2ccc(Br)s2)CC1	?	nt	nt	?
CCN(CC)CCN(C(=O)c1ccco1)c1nc2ccc(Cl)cc2s1	13%[46.1 µM]	nt	nt	8%
Clc1cccc(CNc2ncnc3c2nc2n3CCCC2)c1	?	nt	nt	-4%
O=C(COCc1cc(-c2cccs2)on1)N1CCN(c2cccc(Cl)c2)CC1	-1%[46.1 µM]	nt	nt	-9%
Fc1ccccc1Nc1ncnc2c1nc1n2CCCCC1	?	nt	nt	0%
Remaining list, next part.
SMILES	LASV entry inh	NS1 function inh	SARS PLP yeast	2A StopGo
Cc1ccc(NC(=O)N(Cc2ccc3c(c2)OCO3)C2CCN(Cc3ccccc3)CC2)cc1C	?	nt	nt	-16%
CCN1CCN(CCCNC(=O)Cn2c(-c3cccs3)cc3cc(F)ccc32)CC1	-29%[46.1 µM]	nt	nt	-7%
COc1cc(NC(=O)N2CCC(CN3CCOCC3)CC2)cc(OC)c1OC	-10%[46.1 µM]	nt	nt	-12%
Cc1ccc(NC(=O)Cn2cc(S(=O)(=O)Cc3ccc(F)cc3)c3ccccc32)cc1Cl	-29%[46.1 µM]	nt	nt	-15%
CC1=C(C(=O)NCc2cccc(F)c2)C2(CCCCC2)OC1=O	14%[46.1 µM]	nt	nt	-3%
O=C(COCc1cc(-c2ccc(F)cc2)on1)Nc1cccc(Cl)c1Cl	-4%[46.1 µM]	nt	nt	-16%
Cc1cc(Nc2cccc(Cl)c2)nc2ccc(NC(=O)c3cccnc3)cc12	-22%[46.1 µM]	nt	nt	?
CCOC(=O)N1CCC2(CC1)OC(=O)C(C)=C2C(=O)NCc1ccccc1OC	18%[46.1 µM]	nt	nt	-6%
Cn1cc(S(=O)(=O)c2cccc(Cl)c2)c(=O)c2cc(F)c(N3CCN(c4ccc(F)cc4)CC3)cc21	-12%[46.1 µM]	nt	nt	11%
COc1cccc(CNC(=O)C2CCCN(c3nn4cc(-c5ccc(C)cc5)nc4s3)C2)c1 (stereo not given)	11%[46.1 µM]	nt	nt	-5%

Copied from the list.
Value for COc1cc(NC(=O)N2CCC(CN3CCOCC3)CC2)cc(OC)c1OC under 2A StopGo: -12%
Value for O=C(COCc1cc(-c2ccc(F)cc2)on1)Nc1cccc(Cl)c1Cl under LASV entry inh: -4%[46.1 µM]
Value for CCN1CCN(CCCNC(=O)Cn2c(-c3cccs3)cc3cc(F)ccc32)CC1 under 2A StopGo: -7%

Remaining list, next part
SMILES	LASV entry inh	NS1 function inh	SARS PLP yeast	2A StopGo
CCOC(=O)c1ccccc1NC(=O)N1CCC(CN2CCOCC2)CC1	21%[46.1 µM]	nt	nt	-2%
O=C(Cn1c(-c2cccs2)cc2cc(F)ccc21)NCCCN1CCN(c2ccc(F)cc2)CC1	8%[46.1 µM]	nt	nt	-22%
CCc1ccccc1NC(=O)COCc1cc(-c2ccco2)on1	0%[46.1 µM]	nt	nt	8%
CCn1cc(S(=O)(=O)c2ccc(C)cc2C)c(=O)c2cc(F)c(N3CCCC3)cc21	-22%[46.1 µM]	nt	nt	-10%
CCOc1ccccc1CNC(=O)CN1C(=O)CCCc2ccccc21	8%[46.1 µM]	nt	nt	0%
COc1cccc(N2CCN(C(=O)Cn3c(-c4cccs4)cc4ccccc43)CC2)c1	-13%[46.1 µM]	nt	nt	-23%
Fc1ccc(Nc2ncnc3c2nc2n3CCCCC2)c(F)c1	28%[46.1 µM]	nt	nt	14%
CC(C)(C)NC(=O)Cn1cc(S(=O)(=O)Cc2ccccc2Cl)c2ccccc21	10%[46.1 µM]	nt	nt	10%
CCCCN(C)CCNC(=O)Cn1ncc2c([nH]c3ccccc32)c1=O	15%[46.1 µM]	nt	nt	-14%
Cc1cc(NC(=O)N2CCC(CN3CCOCC3)CC2)ccc1Br	?	nt	nt	20%
CCCn1c2ccccc2c2cnn(CC(=O)N(Cc3ccccc3)C(C)C)c(=O)c21	-28%[46.1 µM]	nt	nt	?
Cc1cc(Nc2cccc(C(F)(F)F)c2)nc2ccc(NC(=O)c3cccc(Cl)c3)cc12	-27%[46.1 µM]	nt	nt	?
CCc1ccccc1NC(=O)CN1C(=O)c2cccnc2Oc2ccc(Cl)cc21	5%[46.1 µM]	nt	nt	0%
